Marburg entry inh: qHTS for inhibitors of binding or entry into cells for Marburg Virus | Marburg virus pseudotyped entry inhibition, cell reporter; control for the full effect not named in the record; about a third of the inactives were read at about 46 µM | Potency, µM (doses to about 37.8 µM), for inactives: at the highest dose activity change, negative = inhibition, hits mostly inhibitors | 300,000 compounds, 1.8% hits | AID 540276, 2011; active = well fitted inhibition curve with a large enough effect; inconclusive = small, poorly fitted or top-dose-only effect, or effect the other way; inactive = flat fitted curve, though single readings scatter; tested in HEK293 cells; about a fifth of its hits are not listed in these tables; also: % is scaled to controls: 0 for no effect and ±100 for the full control effect; luciferase read-out
StopGo reporter: High Throughput Screening for Foot and Mouth Disease Virus Antivirals; human cells with a luciferase reporter of 2A StopGo recoding; control for the full effect not named in the record; Potency, µM (series often up to 57.9 µM), for the others: top-dose signal change, negative = less light; 410,000 compounds, 1.2% hits; AID 1159524, 2015; active = well fitted falling curve with a large enough effect; inconclusive = small, poorly fitted or top-dose-only effect; inactive = no such curve, though single readings can be large or run the other way; tested in HEK293T cells; also: % is scaled to controls: 0 for no effect and ±100 for the full control effect; nearly all actives have a fitted effect of over 45% in size; luciferase light after 4 h
Cruzain inh noDet: qHTS Assay for Promiscuous and Specific Inhibitors of Cruzain (without detergent) | Cruzipain (Trypanosoma cruzi), P25779 | purified cruzain, Z-FR-AMC fluorescence, no detergent | Potency, µM, inactives show max response, negative = inhibition, most hits filed as inhibitors | 200,000 compounds, 2.3% hits | AID 1476, 2009; active = well fitted curve in the direction sought with a large enough effect; inconclusive = small, poorly fitted or top-dose-only effect, or another doubt; inactive = no such curve, though single readings can be large; an effect the other way counts as inactive or inconclusive;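 also: plate controls were enzyme without inhibitor for no effect and buffer without enzyme for full effect; nearly all actives have a fitted effect of over 40% in size; top concentration of the series not given in the record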
Target sequence (P25779 123-467 limits assumed): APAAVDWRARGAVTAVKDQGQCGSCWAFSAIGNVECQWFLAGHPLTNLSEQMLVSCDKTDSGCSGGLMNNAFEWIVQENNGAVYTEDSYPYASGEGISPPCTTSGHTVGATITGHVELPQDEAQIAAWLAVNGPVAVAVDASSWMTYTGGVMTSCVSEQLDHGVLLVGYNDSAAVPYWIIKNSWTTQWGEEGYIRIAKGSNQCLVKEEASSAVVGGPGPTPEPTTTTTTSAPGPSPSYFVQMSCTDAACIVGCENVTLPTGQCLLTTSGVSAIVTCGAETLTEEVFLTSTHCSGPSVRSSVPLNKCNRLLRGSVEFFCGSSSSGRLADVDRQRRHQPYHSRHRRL
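Detergent-free condition (0.00005% Triton X-100) in acetate buffer pH 5.5 with DTT. 1.5 nM enzyme and compound were pre-mixed 15 min, then 2 uM Z-FR-AMC substrate added; reaction progress from fluorescence change between first and third reads (60 s).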
Lassa entry inh: qHTS for Inhibitors of binding or entry into cells for Lassa Virus. Lassa virus pseudotype entry inhibition, cell reporter; control for the full effect not named in the record. Potency, µM (top dose mostly 37.9 µM), for the others: at the top dose activity change, negative = inhibition, actives largely listed as inhibitors. 300,000 compounds, 1.2% hits; active means well fitted inhibition curve with a large enough effect; inconclusive means small, poorly fitted or top-dose-only effect, or effect the other way; inactive means flat fitted curve, though single readings scatter; tested in HEK293 cells; also: % is scaled to controls: 0 for no effect and ±100 for the full control effect; nearly all actives have a fitted effect of over 50% in size; luciferase read-out
NS1 function inh: qHTS Assay for Inhibitors of Influenza NS1 Protein Function | 270,000 compounds, 0.4% hits | Potency, µM (top dose mostly 46.1 µM), inactives show at the highest dose activity, positive = more growth | S. cerevisiae slowed by influenza A NS1, growth recovery by OD600; also: actives are rising curves; nearly all actives have a fitted effect of over 50% in size
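Read-out: OD600 growth recovery of NS1-expressing budding yeast. Cells grown overnight at 30C in -URA glucose medium, washed, resuspended and diluted 1:100 in 2% galactose assay medium, pH 6.0. Same strain lacking NS1 served as positive control.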
SARS PLP yeast: qHTS of Yeast-based Assay for SARS-CoV PLP; S. cerevisiae expressing SARS-CoV PLpro, growth rescue; control for the full effect not named in the record; Potency, µM (series often up to 32.9 µM), inactives show at the highest dose activity, positive = growth rescue; 330,000 compounds, 0.19% hits; AID 485353, 2010; also: 0% is about no effect; nearly all actives have a fitted effect of over 55% in size; growth read by luminescence after 48 h
RE007 growth inh: qHTS Assay for Inhibitors of the HIV-1 protein Vpr; S. pombe RE007 Vpr strain, BacTiter-Glo ATP luminescence, 24 h; control for the full effect not named in the record; Potency, µM (doses to about 92.2 µM), without a hit: at the top dose activity change, negative = less growth; 360,000 compounds, 0.21% hits; AID 651644, 2012; active = well fitted falling curve with a large enough effect; inconclusive = small, poorly fitted or top-dose-only effect; inactive = no such curve, though single readings can be large or run the other way;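 also: % is scaled to controls: 0 for no effect and ±100 for the full control effect; nearly all actives have a fitted effect of over 50% in size; the assay follows cell death caused by Vpr and the record does not say whether a fall means rescue or toxicity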
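Fission yeast strain RE007, carrying one chromosomally integrated HIV-1 vpr copy, was seeded at OD 0.01 in PMG+AL medium with 23 nL pinned compound. After 24 h at 30 °C and 99% humidity, viability was read by BacTiter-Glo luminescence.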
Cruzain Triton: qHTS Assay for Promiscuous and Specific Inhibitors of Cruzain (with detergent); Cruzipain (Trypanosoma cruzi), P25779; purified cruzain, Z-FR-AMC fluorescence, 0.01% Triton; Potency, µM, for inactives: max response, negative = inhibition, usual class: inhibitors; 200,000 compounds, 0.43% hits; active = well fitted curve in the direction sought with a large enough effect; inconclusive = small, poorly fitted or top-dose-only effect, or another doubt; inactive = no such curve, though single readings can be large; an effect the other way counts as inactive or inconclusive;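 also: plate controls were neutral wells for no effect and buffer without enzyme for full effect; nearly all actives have a fitted effect of over 40% in size; top concentration of the series not given in the record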
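Steps: dispense cruzain (1.5 nM final) in acetate buffer pH 5.5 with DTT and 0.01% Triton X-100; pin-transfer compounds; incubate 15 min RT; add Z-FR-AMC (2 uM final); read fluorescence every 30 s, using the 60 s intensity change.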
Numbers without * were called inactive; ? = inconclusive; · = no result given; [ ] = another dose, or the depositor's remark. Unless noted, calls follow the shape of the dose curve; as a rule, active means well fitted rising curve with a large enough effect; inconclusive means small, poorly fitted or top-dose-only effect; inactive means no such curve, though single readings can be large or run the other way. Potency is read from the fitted curve at half-maximal effect. Rows are unselected; overall some 4.8% were active at least once.

SMILES | Marburg entry inh | StopGo reporter | Cruzain inh noDet | Lassa entry inh | NS1 function inh | SARS PLP yeast | RE007 growth inh | Cruzain Triton
CC(C)n1ncc2c(C(=O)NCCc3ccc(S(N)(=O)=O)cc3)cc(C3CC3)nc21 | ? | -4.3% | · | ? | · | -6.3% | 8.4% | ·
COc1ccc(CN(C)S(=O)(=O)c2ccc3c(c2)OCCO3)cc1 | 26.4% | 7.9% | · | -7.6% | 0.1% | -3.1% | -4.2% | ·
O=C(Nc1ccc(CN2CCCCC2)cc1)c1ccc2c(c1)OCO2 | 20.3% | 17.7% | -10.3% | -10.8% | 3.9% | -1.0% | -10.4% | 0.0%
CC(C)n1c(O)c(N=NC(=O)CNC(=O)CCc2ccccc2)c2ccccc21 | · | -4.0% | · | · | -9.2% | 0.1% | -1.2% | ·
COc1ccc(NC(=O)c2ccccc2Oc2ccccc2)cc1 | · | 12.1% | · | · | -16.8% | -1.6% | -26.9% | ·
COC(=O)c1ccc(N2CCN(C(C)=O)CC2)c(NC(=O)COc2ccccc2C)c1 | -10.2%[46.1 µM] | -16.0% | · | -16.9%[46.1 µM] | -5.2% | 0.8% | 37.4% | ·
O=C(Nc1cc(S(=O)(=O)N2CCOCC2)ccc1N1CCOCC1)c1cn2ccccc2n1 | · | -23.9% | · | ? | · | -3.1% | 1.3% | ·
Cc1nn2c(-c3ccc(S(=O)(=O)N4CCN(C)CC4)o3)nnc2c2ccccc12 | · | -16.7% | · | · | 7.1% | -2.4% | -13.7% | ·
CCOc1ccc(-n2cnc3scc(-c4ccc(OC)c(OC)c4)c3c2=O)cc1 | -31.3%[46.1 µM] | -27.7% | · | ? | -0.8% | 2.6% | -11.5% | ·
COc1cc(C(=O)NCc2ccccc2)ccc1OC(F)F | 8.6% | 21.5% | -12.4% | 5.2% | -4.9% | 1.8% | 2.8% | -2.7%
Cc1cc(C)c(S(=O)(=O)n2ccc(-c3ccc(OCCN(C)c4ccccn4)cc3)n2)c(C)c1 | ? | 0.0% | ? | -6.0% | 26.2% | -0.9% | -3.9% | 5.5%
Cc1ccc(S(=O)(=O)N2CCC(C(=O)OCC(=O)N3CCCC(C)C3)CC2)cc1C (stereo not drawn) | -0.8% | -13.7% | · | -14.7% | · | 3.5% | 0.4% | ·
CC(=O)N1CCc2c(sc(NC(=O)c3ccc(S(=O)(=O)N(C)C)cc3)c2C#N)C1 | 1.9% | 2.3% | · | · | -38.6% | · | 5.3% | ·
CCOc1ccc(-c2nc(CSCC(=O)N3CCN(c4cccc(C(F)(F)F)c4)CC3)c(C)o2)cc1 | · | ? | ? | ? | · | · | · | -7.7%
CCN(CC)S(=O)(=O)c1ccc(-c2nnco2)cc1 | 0.2% | -3.8% | 1.8% | -2.0% | 4.1% | 8.8% | 0.0% | 2.4%
Cc1cc(C)n2ncc(-c3cccc(Br)c3)c2n1 | ? | 13.6% | · | 20.9%[46.1 µM] | -9.6% | -2.0% | -1.1% | ·
CNC(=O)CN(C)S(=O)(=O)c1ccc(OC)c(Cl)c1 | ? | -25.0% | -5.5% | -21.2% | 11.3% | 5.9% | -2.5% | -1.1%
C#CCOC(=O)Nc1ccc(OCC(F)(F)F)nc1 | ? | 34.5%[activator] | · | ? | -7.4% | -0.1% | 1.7% | ·
CCc1ccc2occ(CC(=O)Nc3ccccc3C(F)(F)F)c2c1 | 8.3%[46.1 µM] | -17.5% | -9.2% | 21.4%[46.1 µM] | · | · | · | -2.1%
CCOC(=O)c1ccc(NC(=O)C2CCC(CNc3c(N4CCOCC4)c(=O)c3=O)CC2)cc1 (stereo not drawn) | · | 6.4% | · | · | -5.5% | 2.6% | 0.9% | ·
C=CCn1c(COc2ccccc2)nnc1SCC(=O)NCC(=O)OCC | 16.3% | -16.0% | 2.0% | -2.8% | -4.6% | -3.1% | 4.0% | 2.8%
NC(=O)C1(N2CCCCC2)CCN(Cc2ccc(F)cc2)CC1 | ? | -10.4% | 0.7% | -11.4% | 23.7% | 2.8% | -5.8% | -2.0%
N#CC1(c2ccccc2)CCCN1C(=O)c1ccc(Br)o1 (stereo not drawn) | 3.8% | 14.5% | -1.6% | 0.7% | 2.8% | 4.7% | 7.4% | -0.4%
Cc1cc2oc(=O)sc2cc1NS(=O)(=O)c1ccccc1 | -0.7%[46.1 µM] | 5.6% | · | 11.2µM* | -9.1% | -9.9% | 7.5% | ·
COc1ccc(Cl)cc1C(=O)NC(=S)Nc1cc(-c2nc3ccccc3[nH]2)ccc1C | -26.9%[46.1 µM] | -7.5% | 4.9% | -19.9% | -89.8% | -12.3% | 4.3% | -4.0%
Cc1cc(=O)c2cc(Br)ccc2n1CC(=O)NCc1ccccc1 | · | 0.0% | · | · | -2.4% | 0.3% | -4.2% | ·
CC(=O)c1cccc(N(CC(=O)NC2CCCCC2)C(=O)CNC(=O)c2cccs2)c1 | 12.6% | -0.4% | · | -1.6% | 12.2% | 4.8% | 0.9% | ·
COCCNc1nc(CSc2ccccc2)nc2sc(C)c(C)c12 | -4.1% | 0.0% | 11.4% | ? | -10.5% | -19.2% | -10.5% | -8.0%
O=C(CN1CCCCC1)Nc1c2c(nc3ccccc13)N(c1ccccc1)CC2 | ? | -12.4% | · | ? | · | 0.1% | -21.7% | ·
O=C(Nc1nc2ccc(F)cc2s1)c1ccc(N2CCCC2=O)cc1 | 2.0% | 13.1% | · | -0.1%[46.1 µM] | · | -2.2% | 6.2% | ·
COC(=O)CC1C(=O)NC2CCCCC2N1C(=O)CCl (stereo not drawn) | ? | ? | · | ? | 1.9% | 2.6% | -2.1% | ·
O=C(CNC(=O)c1sc2ccccc2c1Cl)NCc1ccccc1 | ? | 11.2% | · | ? | 3.5% | ? | 4.8% | ·
O=C(c1ccccc1)N1CCSc2sccc2C1=O | · | -27.4% | · | · | 11.1% | -0.8% | 5.1% | ·
Cc1ccc(S(=O)(=O)N2CCC(N3CCN(C)CC3)CC2)cc1Cl | 0.8%[46.1 µM] | 26.6% | · | 7.4%[46.1 µM] | -0.5% | -1.1% | 9.2% | ·
N#CC1(Nc2ccc([N+](=O)[O-])cc2)CCCC1 | 7.8% | -3.4% | · | -6.2% | · | · | 20.9% | ·
O=C(CN(Cc1ccco1)C(=O)c1ccc(Cl)cc1)Nc1c(Cl)cc(Cl)cc1Cl | 10.6% | -11.7% | 14.6% | 4.6% | 10.6% | 6.4% | -4.2% | -2.8%
CCCS(=O)(=O)N1CCC(C(=O)NC2CCCC(C)C2C)CC1 (stereo not drawn) | 7.6% | -12.2% | 12.7% | -5.6% | -0.6% | 0.2% | -5.4% | -1.7%
O=C(COC(=O)CC(c1ccccc1)c1ccccc1)Nc1c(F)cccc1F | -6.0% | · | -3.1% | ? | -21.0% | 9.2% | · | -12.7%
Cc1cc(Cl)ccc1OCc1nc(-c2ccncc2)no1 | ? | 28.8% | · | ? | · | -16.5% | 8.0% | ·
NS(=O)(=O)c1cccc(NC(=O)CN2CCCc3ccccc32)c1 | 3.2%[46.1 µM] | 0.7% | · | 9.2%[46.1 µM] | 4.3% | 1.7% | 15.0% | ·
COC(=O)c1ccc(NC(=O)NCCn2nnc3cc(S(=O)(=O)N(C)C)ccc32)cc1 | · | 1.5% | -17.2% | 5.0%[46.1 µM] | · | · | · | 1.4%
Cc1cccc(-c2nnc(N)s2)c1 | 9.4% | 3.7% | 1.1% | 20.0% | -10.7% | -2.3% | -3.0% | 1.9%
CC(C)Cc1ccc(S(=O)(=O)NCC2CCCO2)cc1 (stereo not drawn) | ? | 17.9% | · | -17.2%[46.1 µM] | -12.2% | -5.2% | 8.4% | ·
CCSc1ncc(Cl)c(C(=O)N2CCN(c3ccccc3OC)CC2)n1 | ? | -17.8% | 0.2% | -10.0%[46.1 µM] | · | · | · | -2.3%
CCOc1ccc(NC(=O)C(CC(=O)O)Cc2ccc(Br)cc2)cc1 (stereo not drawn) | ? | -7.3% | · | 1.6% | 15.9% | 0.2% | -2.6% | ·
O=[N+]([O-])c1ccc(F)cc1F | 5.4% | -14.1% | 1.4% | · | · | 2.5% | 7.5% | 2.8%
Cc1ccc2nc(-c3ccc(NC(=O)c4ccc(S(C)(=O)=O)cc4)cc3)sc2c1 | · | 24.9% | -15.6% | 24.4%[46.1 µM] | · | · | · | 4.4%
Cc1ccc2oc(C(=O)N3CCC(N4CCSCC4)CC3)c(C)c2c1 | ? | -1.5% | · | 3.3%[46.1 µM] | 2.7% | 0.4% | -14.5% | ·
O=S(=O)(NCCSc1ccccc1)c1ccc2c(c1)OCCO2 | -1.9% | 53.6%[activator] | -3.0% | 7.9% | -94.8% | 0.8% | -19.8% | -2.7%
CN(C(=O)Cn1nnc(-c2cccc(C(F)(F)F)c2)n1)C1CCCCC1 | 14.9% | -21.3% | -3.0% | 12.6% | 3.1% | -1.1% | -26.0% | -0.7%
O=S(=O)(c1ccc(Cl)c(NC(=S)Nc2cccc(O)c2)c1)N1CCOCC1 | 17.4% | 8.5% | 3.3% | -9.7% | 10.8% | 8.9% | 5.1% | -3.9%
CCOC(=O)c1ccc(COC(=O)c2cc(=O)[nH]c3ccccc23)o1 | 0.1% | -0.8% | -5.7% | 2.7% | -3.2% | 5.4% | 38.1% | -0.5%
O=C(CN1CCN(S(=O)(=O)c2ccc(Cl)cc2)CC1)NCc1cccs1 | -4.8% | -16.4% | · | 17.2% | · | -2.0% | 1.7% | ·
COc1ccc(C2SCCN2C(=S)Nc2ccc(Cl)cc2)cc1 (stereo not drawn) | -16.7% | 19.7% | 5.2% | -10.4% | -0.1% | -32.8% | -8.8% | -6.1%

Source: PubChem BioAssay (National Center for Advancing Translational Sciences (NCATS))
